# A1 inh = caspase 3/7 activation in MEF A1-2A-BIM cells, primary screen, A1 inhibitor project, cell-based, luminescence, HTS; Caspase-Glo 3/7 luminescence, 3 h; percent of clofoctol response, vehicle zero; 330,000 tested, 0.066% active; caspase activation, % (test concentration not listed);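 active = over half of replicate activation scores above 10%, or exactly half above 10 with the replicate mean above 10; inconclusive = replicate mean below 10 yet half the replicates above 10; inactive = over half of replicates below 10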;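 note: wells of about 30 µL received 50 nL stock; many hits fall short of the cut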
# LANA-H2A inh = blockers of LANA interaction with H2A/H2B – biochemical, FP readout, HTS, primary screen | Protein LANA1 (Human herpesvirus 8 type P (isolate GK18)), Q9QR71 | cell-free LANA-H2A/H2B peptide, fluorescence polarization | inhibition, % (no concentration beside the values) | 320,000 tested, 0.6% active; in the data active = inhibition mostly above about 10%, no sharp cut-off; inactive = mostly below about 6.7%;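 note: stock transfer was 7.5 nL into about 10 µL; 0% = median of vehicle wells and 100% = median of positive control wells; one replicate is shown; the record names a cut of 25% in any replicate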
# Target sequence (Q9QR71 whole entry, looked up): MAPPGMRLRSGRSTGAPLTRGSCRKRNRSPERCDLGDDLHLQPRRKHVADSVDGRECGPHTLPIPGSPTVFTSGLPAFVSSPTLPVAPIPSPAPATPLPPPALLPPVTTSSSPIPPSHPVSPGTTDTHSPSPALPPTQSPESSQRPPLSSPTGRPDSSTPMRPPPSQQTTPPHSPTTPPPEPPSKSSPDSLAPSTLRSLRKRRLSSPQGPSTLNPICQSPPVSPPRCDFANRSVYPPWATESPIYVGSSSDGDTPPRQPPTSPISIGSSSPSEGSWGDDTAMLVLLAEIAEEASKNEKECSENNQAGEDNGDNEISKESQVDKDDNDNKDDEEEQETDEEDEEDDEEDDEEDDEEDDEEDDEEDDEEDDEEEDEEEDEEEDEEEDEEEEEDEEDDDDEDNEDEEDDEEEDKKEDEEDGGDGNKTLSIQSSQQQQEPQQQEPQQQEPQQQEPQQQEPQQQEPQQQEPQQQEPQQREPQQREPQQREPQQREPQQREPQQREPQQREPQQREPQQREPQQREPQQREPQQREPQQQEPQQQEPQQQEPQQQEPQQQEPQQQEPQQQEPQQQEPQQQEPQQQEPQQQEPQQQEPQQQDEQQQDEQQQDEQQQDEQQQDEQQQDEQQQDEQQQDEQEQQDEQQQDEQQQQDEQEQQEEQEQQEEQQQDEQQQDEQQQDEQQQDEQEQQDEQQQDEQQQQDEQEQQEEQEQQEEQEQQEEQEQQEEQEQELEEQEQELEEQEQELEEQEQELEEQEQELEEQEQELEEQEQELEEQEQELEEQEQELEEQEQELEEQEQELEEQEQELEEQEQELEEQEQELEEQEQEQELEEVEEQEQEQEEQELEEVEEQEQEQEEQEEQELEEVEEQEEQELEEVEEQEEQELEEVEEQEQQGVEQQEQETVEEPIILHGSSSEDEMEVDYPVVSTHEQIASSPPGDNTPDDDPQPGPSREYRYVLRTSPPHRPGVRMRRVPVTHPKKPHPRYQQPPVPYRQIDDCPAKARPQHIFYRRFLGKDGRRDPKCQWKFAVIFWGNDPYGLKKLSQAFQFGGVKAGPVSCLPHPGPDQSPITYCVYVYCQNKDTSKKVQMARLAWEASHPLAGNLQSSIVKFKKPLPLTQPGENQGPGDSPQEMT
# Vif A3G = inhibitors of Vif binding to APOBEC3G peptide, primary screen, biochemical, TR-FRET, GST-Vif 1-94, biotin-A3G peptide, dose response retest (AID 1117319) | TR-FRET GST-Vif / biotin-A3G peptide binding; higher % means a stronger effect; test concentration not given here; strong numbers were not always called active | inhibition, %, or IC50 in µM where a hit was titrated | 260,000 tested, 0.57% active;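 active = above the screen mean plus three standard deviations and confirmed in dose response; inconclusive = results disagree or hit not tested in dose response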;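 note: Vif residues 1-94 fused to GST binding biotinylated APOBEC3G peptide 110-148; 0% = full assay without inhibitor and 100% = GST in place of GST-Vif; retest series ran down from 100 µM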
# Calb FLC = C. albicans growth inhibition with fluconazole, primary screen, CaCi-2 strain, Alamar Blue fluorescence; C. albicans CaCi-2 (fluconazole-resistant clinical isolate) + fluconazole, 48 h; growth inhibition, % (concentration not given with the values); 300,000 tested, 0.57% active; AID 1979, 2009;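 active = most replicates above 75%; inconclusive = exactly half above 75%; inactive = most below 75%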;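 note: all wells also contain fluconazole at 8 µg/ml as a sub-toxic cotreatment; 0% = median of DMSO wells and 100% = median of geldanamycin control wells; wells of about 8 µL received 7.5 nL stock; the first replicate is given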
# Beta cell apopt = inhibitors of cytokine-induced beta cell apoptosis, primary screen, luminescence; 300,000 tested, 0.8% active; INS-1E cytokine-induced death, ATP luminescence, 48 h; percent of positive-control rescue, neutral wells zero; protection from apoptosis, % (concentration not given with the values);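 active = all replicates at 75% or more, or half of them and the mean; inconclusive = half reach 75% but not the mean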;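 note: 0% = cytokine-treated negative control wells and 100% = positive control rescue; higher means more ATP so stronger rescue from cytokine killing; wells of about 40 µL received 100 nL stock; the first replicate is given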
# T cruzi inh = inhibitors of intracellular T. cruzi growth, primary screen, luminescence, NIH3T3 host cells; 300,000 tested, 1.4% active; T. cruzi beta-gal in NIH3T3, 90 h; AID 1885, 2009; inhibition, % (concentration not given with the values);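 active = mean inhibition across valid replicates above about 55%, limit read from the data; inconclusive = mean below that limit but half or more replicates reach it; inactive = mean below it, under half of replicates reach it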;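 note: signal also drops with host cell toxicity which is not excluded here; 0% = plate median of DMSO wells and 100% = zero luminescence signal; higher percent means less beta-gal luminescence so fewer parasites; stock transfer was 50 nL into about 50 µL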
# RanGTP-Imp inh = inhibitors of RanGTP-importin-beta interaction, primary screen, biochemical, FRET, CFP-Ran, YFP-importin-beta, homogeneous | Ran GTPase (GTP-bound) - importin-beta complex | cell-free CFP-Ran/YFP-importin-beta FRET ratio | inhibition, % (no concentration beside the values) | 300,000 tested, 1.1% active | AID 2216, 2009;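 active = most replicates above 15%; inconclusive = exactly half above 15%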;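 note: 0% = DMSO wells and 100% = Ran loaded with GDP instead of GTP; wells of about 40 µL received 100 nL stock; the first replicate is given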
# MLL AF4-AF9 inh = inhibitors of AF4 peptide binding to AF9, primary screen, biochemical, AlphaScreen, biotin-AF4 peptide, FLAG-AF9, single point | AID 651704, 2012 | 350,000 tested, 0.47% active | inhibition, % at 10 µM;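 active = every replicate reaching a set inhibition limit, whatever the replicate mean, cut at about 25% in these data; inconclusive = mean inhibition reaches that limit but some replicates miss it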;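 note: 0% = plate neutral control median and 100% = total signal loss; the record names both 10 and 1 µM as test concentration; the first replicate is given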
# Numbers without * were called inactive; ? = inconclusive; / = not tested or not shown; & = joins results of further samples.
SMILES,A1 inh,LANA-H2A inh,Vif A3G,Calb FLC,Beta cell apopt,T cruzi inh,RanGTP-Imp inh,MLL AF4-AF9 inh
NC(=O)c1ccc(NC(=O)CSc2nnc(-c3cccnc3)n2Cc2ccco2)cc1,-0.2,-0.8,/,0.5,-6.5,-15.5,?,-0.1
COc1ccc(Cl)cc1NC(=O)C(=O)NC1CCCCCC1,1.1,-1.0,3.0%,15.2,0.3,10.5,5.3,/
COc1c(Cl)cc(Br)c(OC)c1C(=O)NC(=O)Nc1nc(C)cc(C)n1,-0.5,8.9,7.8%,-4.1,-9.1,10.6,6.2,-3.7
COCCCn1c(=O)c2sccc2n2c(CCCC(=O)NCc3ccc(F)cc3)nnc12,2.1,3.6,1.8%,21.6,-4.0,-7.2,3.5,-4.8
O=C(COC(=O)c1ccc2ncsc2c1)Nc1ccc(Cl)cc1,0.4,-0.3,/,/,-3.2,/,/,-0.6
Cc1ccc(/C=N/NC(=O)c2ccc3nc[nH]c3c2)o1,-0.1,0.3,21.1%,7.9,2.1,0.2,-1.3,-1.0
Cc1ccc2c(c1)C(c1ccccc1)N(C(=O)c1ccc(Br)o1)CC(=O)N2 (stereo not given),1.8,-0.8,-1.9%,5.9,-15.5,33.8,-2.9,4.8
Cc1ccc(C2(C)NC(=O)N(CC(=O)Nc3ccccc3C(=O)N3CCCCC3)C2=O)cc1 (stereo not given),0.0,-1.5,3.5%,-6.6,-3.0,-6.8,3.5,-1.7
COc1cc(NC(=O)C/C(C)=N/NC(=O)C2CCCCC2)c(OC)cc1Cl,0.9,0.7,/,-0.2,-6.1,0.0,4.5,2.8
CCC(C)N1CCNCC1 (stereo not given),-1.3,-6.2,21.2%,24.5,-4.1,-4.8,0.5,-1.9
CC(C)Cc1nnc(NC(=O)C2CCN(C(=O)c3ccc(F)cc3)CC2)s1,0.0,/,3.1%,-4.9,-4.5,9.5,5.6,-0.8
Cc1ccc(S(=O)(=O)NCC(c2ccc3c(c2)OCO3)N2CCN(c3ccccc3)CC2)cc1 (stereo not given),0.6,-6.9,4.0%,5.1,/,12.6,0.9,0.0
Cc1ccn(CCNC(=O)C2CCC(=O)N(CCc3ccc(Cl)cc3)C2)n1 (stereo not given),-0.2,2.0,-4.9%,-1.2,-1.7,-5.6,-0.2,-2.8
CCC(C)[C@@H](N)C(=O)N/N=C/c1ccc2ncccc2c1 (stereo not given in full),1.0,-3.0,/,-7.2,-6.9,-11.3,4.1,1.2
COc1cc([N+](=O)[O-])ccc1NC(=O)COC(=O)c1ccc(NC(N)=O)cc1,1.6,-1.4,6.7%,1.7,-3.7,6.4,1.7,-47.7
CCOc1ccc(CN2CCN(Cc3cccn3-c3nccs3)CC2CCO)cc1 (stereo not given),-0.3,0.5,-5.9%,-30.5,6.4,18.3,-4.8,3.7
NS(=O)(=O)c1ccccc1NC(=O)c1c(O)c2ccccc2[nH]c1=O,-2.4,0.9,-3.6%,-4.6,2.9,10.7,2.2,2.7
Cc1cccc2cc(C(c3nnnn3C3CCCC3)N3CCOCC3)c(=O)[nH]c12 (stereo not given),0.0,0.0,0.7%,0.7,-4.5,-1.5,-1.6,/
CCC(=O)c1ccc(OC(=O)C2CCN(C3=NS(=O)(=O)c4ccccc43)CC2)cc1,0.5,/,-24.0%,/,-5.4,/,/,2.1
O=C(CSc1nnc(C2COc3ccccc3O2)o1)N1CCCCC1 (stereo not given),0.3,-1.5,10.3%,3.6,-2.9,-5.3,2.1,0.5
O=C(Nc1nccs1)C1CC(=O)N(Cc2ccco2)C1 (stereo not given),0.5,-0.7,13.6%,-5.8,/,-5.5,0.9,-1.3
c1ccc(-c2cc(N3CCOCC3)nc(-c3ccccc3)n2)cc1,-0.2,0.1,-3.9%,9.1,-0.3,10.1,0.2,/
COc1ccccc1CCNC(=O)C(=O)c1cn(CC(=O)N2CCCC2)c2ccccc12,0.3,-3.1,/,0.5,-4.1,11.2,7.6,2.0
O=C1c2ccccc2-c2c1cccc2C(=O)N1CCCCCC1,1.1,-3.0,/,11.5,-10.3,-5.5,-0.6,-1.1
CCOc1ccc(S(=O)(=O)N2CCC(C(=O)NCc3ccncc3)CC2)cc1C,0.4,2.4,/,15.2,-10.6,3.9,2.2,2.4
CC(C)CN=C(NS(=O)(=O)c1ccccc1)C(Cl)(Cl)Cl,0.9,4.3,-5.8%,-2.2,1.2,15.1,1.6,-1.5
Cc1cccc(-n2c(SCC(=O)Nc3nonc3C)nnc2-c2ccoc2C)c1,1.3,8.7,-1.0%,/,6.1,15.9,1.2,/
COc1cc2c(cc1OC)C(C)N(C(=O)c1cccs1)CC2 (stereo not given),-0.5,0.2,-0.8%,15.5,-4.0,9.5,1.9,-0.8
C[C@@H]1NC(=O)[C@H](CCCN=C(N)N)NC(=O)c2cc([N+](=O)[O-])cc(I)c2OCC[C@@H](C(=O)NC(CC(=O)O)C(N)=O)NC1=O (stereo not given in full),0.5,2.7,5.6%,-2.2,3.1,-7.1,-4.4,/
CC(=O)c1cc(CN2CCCCC2)cc(OC(C)C)c1,0.7,-3.2,-2.7%,-10.8,-5.0,-10.2,7.3,-0.9
CCNC(=O)c1sccc1-n1cccc1,0.5,-7.1,-5.9%,-6.7,-10.8,-8.9,-0.8,/
C=CCSc1ncc(C#N)c(N)n1,0.0,-1.5,0.1%,0.2,-5.8,15.8,0.9,/
CCOc1ccc(-c2nc(CCl)cs2)cc1OC,-0.7,2.7,-7.6%,9.1,0.9,-16.1,-2.7,1.8
Nc1nonc1-n1nnc(C(=O)N/N=C/C=C/c2ccccc2)c1CSC1=NCCS1,-1.8,-0.3,5.0%,25.4,2.1,8.1,-1.2,0.6
Cc1ccc(CS(=O)Cc2ccc(C(=O)NCc3ccc4c(c3)OCO4)o2)cc1 (stereo not given),0.2,1.1,/,-0.8,-4.8,2.2,-1.9,4.0
COc1ccc(NC(=O)c2cccc(NC(=O)c3ccccc3)c2)cc1,-1.7,1.4,/,11.9,4.9,-0.7,-1.0,1.9
Cc1c(C)c2cc(Cl)c(OCc3nn[nH]n3)cc2oc1=O,0.2,-5.3,2.7%,1.1,-4.1,-12.4,-0.6,/
Cc1ccc(-n2nc3c(c2NC(=O)c2ccc4c(c2)OCO4)CS(=O)C3)cc1 (stereo not given),2.3,-0.5,24.2%,0.1,-5.5,0.5,0.3,/
CCc1sc(C(=O)NC2CCN(C)CC2)cc1Br,0.1,-1.2,-0.5%,-7.6,-3.3,61.6*,6.2,/
CCOc1ccc(C(=O)CCC(=O)O)cc1,0.4,-0.9,4.7%,-5.4,-6.2,-8.4,6.7,4.3
CCCOc1cccc(-c2cc(C(=O)NNC(=S)NCC)c3ccccc3n2)c1,-3.1,-1.9,-7.4%,83.7*,27.6,7.5,-1.6,/
FC(F)(F)c1cccc(Sc2cc(C(F)(F)F)nc(-c3ccccn3)n2)c1,0.5,-0.9,11.2%,-7.0,5.0,28.1,-1.6,/
COc1ccccc1NS(=O)(=O)c1ccc(N/N=C/c2ccccc2OCC(=O)O)c([N+](=O)[O-])c1,-0.3,1.6,13.3%,2.1,-7.6,11.0,3.5,13.8
N/C(CN1CCCC1=O)=N\OC(=O)c1ccc(Cl)c(Cl)c1,-1.5,1.4,0.7%,16.6,-10.5,-9.8,3.7,-1.8
COc1ccc(NC(=O)C2CC2)cc1NS(=O)(=O)c1ccc(F)cc1,-0.5,3.8,4.6%,6.2,-0.5,-2.7,-4.7,/
CCc1ccc(NC(=O)CCNC(=O)Cn2ccc3ccccc3c2=O)cc1,0.5,2.0,/,0.8,-3.6,-0.2,-1.3,10.0
CC(C)CCNC(=O)CN(Cc1cccs1)C(=O)CCC(=O)Nc1nccs1,0.2,0.4,-3.3%,3.1,-2.7,0.6,?,8.7
O=C(O)c1cc(-n2nnnc2SCc2ccc([N+](=O)[O-])cc2)ccc1Cl,0.3,3.4,-8.5%,7.2,-2.1,-1.2,0.7,-11.8
O=C(NCCN1CCOCC1)c1cc([N+](=O)[O-])cc([N+](=O)[O-])c1,2.0,3.0,0.5%,5.9,/,21.8,9.7,-0.6
Cc1ccc(-n2nnnc2C(=Cc2ccc(N(C)C)cc2)c2nnnn2-c2ccc(C)cc2)cc1,1.5,-1.7,-2.3%&-3.3%,-2.3,13.1,45.0,0.7,/
# Other records:
SMILES,A1 inh,LANA-H2A inh,Vif A3G,Calb FLC,Beta cell apopt,T cruzi inh,RanGTP-Imp inh,MLL AF4-AF9 inh
CCN(C(=O)C1CCCN1S(=O)(=O)c1cccc2nsnc12)c1ccccc1 (stereo not given),-0.3,-4.4,-3.6%,5.1,-6.1,-7.7,3.2,-10.0
COC(=O)Cn1c(=NC(=O)CSCC(=O)NC2CCCCC2)sc2cc(OC)ccc21,0.0,-0.5,-18.4%,26.5,-0.4,6.8,?,/
O=C(c1ccccc1)N1CCN(C2CC(=O)N(CCc3ccccc3)C2=O)CC1 (stereo not given),-0.6,4.1,19.7%,1.7,2.5,-4.7,-0.6,6.6
O=C(Nc1cccc(O)c1)c1cc(-c2cccs2)on1,-6.6,0.7,/,-19.6,1.1,-6.1,-4.5,-1.4
Cc1ccc(CCNC(=O)C2CCC(=O)N2CCc2ccccc2)cc1 (stereo not given),-0.6,-2.3,-7.8%,-2.3,/,-12.7,1.0,-1.7
COC(=O)c1c(S(=O)(=O)N2CCOCC2)c(C)n(C)c1C,0.1,-8.0,2.6%,0.9,-0.8,-11.5,8.6,-6.2
CCCN1C(=O)c2ccccc2NC1c1cc(OC)c(OC)c(OC)c1 (stereo not given),0.3,-0.4,-2.4%,-5.9,-2.0,-8.0,-2.7,/
Cc1cccc(N2C(=O)CC(c3ccc(F)cc3)C3=C2COC3=O)c1 (stereo not given),0.9,-1.8,3.0%,-3.2,-6.7,-1.1,3.0,-1.6
CN(CC(=O)Nc1c(Cl)cccc1Cl)C(=O)CNC(=O)c1ccc2c(c1)OCO2,-1.0,-0.9,3.8%,-0.4,-5.2,-5.9,0.6,-1.5
Cn1c(COc2ccc(Cl)cc2Cl)nnc1SCC(=O)NCC1CCCO1 (stereo not given),0.4,-4.5,-1.6%,25.1,-1.8,-4.4,2.9,-3.7
COc1ccc(/C=C2\SC(=S)NC2=O)cc1OS(=O)(=O)c1ccc(NC(C)=O)cc1,/,/,11.4%,?,/,5.3,4.5,5.0
CCOC(=O)c1oc2ccccc2c1NC(=O)COC,0.4,1.3,-1.5%,7.9,-6.0,-6.1,-3.5,/
O=[N+]([O-])c1cc(S(=O)(=O)C(F)(F)F)ccc1NCC1CCCO1 (stereo not given),1.2,-3.0,-4.7%,-4.5,0.5,9.5,-4.9,1.9
CC(C)c1ccc(NC2CCCN(C(=O)CN3CCOC3=O)C2)cc1 (stereo not given),-0.3,-5.6,5.9%,-2.4,-3.8,0.5,-6.7,1.9
COC(=O)C1=C(C)N(c2ccc(OC)c(OC)c2)C(=O)/C1=C\c1cccs1,-0.5,3.5,/,4.3,/,11.2,-1.4,-2.0
O=C(Nc1cccc(C(=O)N2CCCc3ccccc32)c1)c1ccccc1,-0.7,-1.3,-6.5%,-3.8,/,-14.5,5.6,0.7
CC(C)C(NS(=O)(=O)c1cccc(C(F)(F)F)c1)C(=O)N1CCc2ccccc2C1 (stereo not given),0.1,1.2,/,17.5,2.3,17.2,3.7,-2.5

# Screening results: PubChem, several laboratories
